# Bioassay records as filed in PubChem BioAssay.
# HNF4A DNA FP: change in binding of human HNF4A to DNA, primary screen, biochemical, fluorescence polarization, FITC-DNA; AID 1224865, 2016; activity change, % at 10 µM; 1 h; Hepatocyte nuclear factor 4-alpha (Homo sapiens), P41235; 0.3% of 360,000 active; in the data active = activity change above about 30%, passing the limit was not always enough;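 also: controls were the assay level and a saturating level of protein; the project sought stronger binding though the title names inhibitors; some compounds called inactive have numbers as strong as hits; positive values seem to mean higher polarization but the record does not say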
# Target sequence (P41235 whole entry, looked up): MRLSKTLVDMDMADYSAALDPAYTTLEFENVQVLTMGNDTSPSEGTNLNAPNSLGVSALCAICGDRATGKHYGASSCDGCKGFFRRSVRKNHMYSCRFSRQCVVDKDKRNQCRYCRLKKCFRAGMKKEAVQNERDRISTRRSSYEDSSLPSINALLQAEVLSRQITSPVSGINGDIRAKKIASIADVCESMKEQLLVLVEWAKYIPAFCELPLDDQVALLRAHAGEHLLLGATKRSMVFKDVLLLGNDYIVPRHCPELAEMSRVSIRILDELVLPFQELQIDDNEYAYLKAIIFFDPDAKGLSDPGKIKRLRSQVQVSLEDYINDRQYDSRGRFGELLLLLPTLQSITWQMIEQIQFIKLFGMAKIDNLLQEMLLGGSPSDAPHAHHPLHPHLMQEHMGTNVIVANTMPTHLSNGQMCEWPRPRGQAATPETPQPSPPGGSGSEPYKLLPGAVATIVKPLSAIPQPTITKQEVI
# RanGTP-Imp inh: inhibitors of RanGTP-importin-beta interaction, primary screen, biochemical, FRET, CFP-Ran, YFP-importin-beta, homogeneous; inhibition, % (test concentration not listed); cell-free CFP-Ran/YFP-importin-beta FRET ratio; Ran GTPase (GTP-bound) - importin-beta complex; AID 2216, 2009; 1.1% of 300,000 active;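 active = most replicates above 15%; inconclusive = exactly half above 15%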;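 also: 0% = DMSO wells and 100% = Ran loaded with GDP instead of GTP; wells of about 40 µL received 100 nL stock; the first replicate is given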
# FGF22 binding: binders of human FGF22 protein, primary screen, FGF22 synaptogenesis inhibitor project, biophysical, thermal shift, single point; Fibroblast growth factor 22 (Homo sapiens), Q9HCT0; recombinant FGF22 thermal shift, SYPRO orange fluorescence; percent of sucrose octasulfate shift, DMSO zero; calls only at 9.99 µM; 1.5% of 340,000 active; AID 651658, 2012;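 active = melting point raised past a set limit in the mean and every replicate; inconclusive = no clear call; three in four hits are not shown here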
# Target sequence (Q9HCT0 whole entry, looked up): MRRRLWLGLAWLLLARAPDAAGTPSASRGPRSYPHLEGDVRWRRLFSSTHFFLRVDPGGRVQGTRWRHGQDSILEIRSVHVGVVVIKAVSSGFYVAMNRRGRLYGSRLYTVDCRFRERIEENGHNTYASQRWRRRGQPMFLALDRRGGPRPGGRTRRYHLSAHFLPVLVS
# UCH37 inh: inhibitors of human UCH37 deubiquitinase, primary screen, biochemical, Ub-AMC cleavage, fluorescence. Ubiquitin carboxyl-terminal hydrolase isozyme L5 (Homo sapiens), Q9Y5K5. purified proteasome/UCH37. inhibition, % (concentration not given with the values). 0.33% of 330,000 active. AID 588478, 2011;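 active = mean of two replicates above 20%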;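 also: 0% = compound-free wells with enzyme and 100% = wells lacking proteasome; stock transfer was 100 nL into about 20 µL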
# Target sequence (Q9Y5K5 whole entry, looked up): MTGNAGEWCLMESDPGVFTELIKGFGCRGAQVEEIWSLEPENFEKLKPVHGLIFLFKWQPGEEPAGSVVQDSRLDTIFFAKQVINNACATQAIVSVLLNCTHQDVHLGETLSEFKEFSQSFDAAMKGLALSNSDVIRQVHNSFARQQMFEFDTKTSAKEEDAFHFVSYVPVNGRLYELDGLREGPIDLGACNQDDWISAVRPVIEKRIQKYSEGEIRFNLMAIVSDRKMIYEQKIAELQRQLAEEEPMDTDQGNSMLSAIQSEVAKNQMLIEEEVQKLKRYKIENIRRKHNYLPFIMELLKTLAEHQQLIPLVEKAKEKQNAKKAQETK
#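 Test system – human UCH37 enzyme supplied as purified proteasome complex · Incubation – 30 min preincubation with enzyme, 25 min cleavage at room temperature · Detection – AMC fluorescence from Ub-AMC cleavage, excitation 355 nm, emission 460 nm · Benchmarks – no-proteasome wells (full inhibition) and compound-free wells (no inhibition)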
# AF4-AF9 inh: inhibitors of AF4 peptide binding to AF9, primary screen, biochemical, AlphaScreen, biotin-AF4 peptide, FLAG-AF9, single point. inhibition, % at 10 µM. 0.47% of 350,000 active. Protein AF-9 (Homo sapiens), P42568;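 active = every replicate reaching a set inhibition limit, whatever the replicate mean, cut at about 25% in these data; inconclusive = mean inhibition reaches that limit but some replicates miss it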;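 also: 0% = plate neutral control median and 100% = total signal loss; the record names both 10 and 1 µM as test concentration; the first replicate is given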
# Vif TR-FRET: inhibitors of Vif binding to APOBEC3G peptide, primary screen, biochemical, TR-FRET, GST-Vif 1-94, biotin-A3G peptide, dose response retest (AID 1117319); Virion infectivity factor (Human immunodeficiency virus type 1 group M subtype B (isolate …; TR-FRET GST-Vif / biotin-A3G peptide binding; higher % means a stronger effect; test concentration not given here; strong numbers were not always called active; inhibition, %; hits with a dose series show IC50 in µM; 0.57% of 260,000 active;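 active = above the screen mean plus three standard deviations and confirmed in dose response; inconclusive = results disagree or hit not tested in dose response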;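 also: Vif residues 1-94 fused to GST binding biotinylated APOBEC3G peptide 110-148; 0% = full assay without inhibitor and 100% = GST in place of GST-Vif; retest series ran down from 100 µM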
# Ecoli growth: E. coli growth inhibition, primary screen, OD600; Escherichia coli growth, 23 h; hits give low values; OD600 absorbance (test concentration not listed); 0.21% of 330,000 active;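 active = OD600 absorbance below the run mean of sample wells minus 3.6 SD, in any replicate, cut at about 0.56 in these data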;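 also: stock transfer was 300 nL into about 60 µL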
# Starred values were filed as active, the others as inactive; i = inactive; ? = inconclusive; · = no result given; & = joins results of further samples. This is a subset (hit frequency here may not be typical).
SMILES,HNF4A DNA FP,RanGTP-Imp inh,FGF22 binding,UCH37 inh,AF4-AF9 inh,Vif TR-FRET,Ecoli growth
Cc1ccc(CNC(=O)N2CCN(S(=O)(=O)c3ccccc3)CC2)cc1,2.5,0.3,i,5.5,-2.1,3.8%,0.682
Cn1c(=O)c2c(ncn2CC(=O)N/N=C/C=C/c2ccccc2)n(C)c1=O,-0.8,-1.1,·,·,·,7.6%,·
Cc1onc(-c2ccccc2)c1C(=O)NC(=S)NNC(=O)c1ccncc1,0.5,4.7,i,3.8,5.4,20.5%,0.7
COc1ccc(CNC[C@H]2O[C@@H](n3ccc(=O)[nH]c3=O)[C@H](O)[C@@H]2O)cc1,-2.0,·,i,·,-1.5,·,·
CC(C)OCCCNC(=O)CN1C(=O)CSc2ccc(S(=O)(=O)N3CCOCC3)cc21,0.5,·,i,·,-0.1,·,·
CC1(c2nnc(-c3ccccc3)o2)CC(c2ccncc2)=NO1 (stereo unspecified),-0.3,-1.3,i,4.1,5.8,-2.2%,0.643
COCCn1nnnc1C(c1ccc(O)c(OC)c1)N1CCc2ccccc2C1 (stereo unspecified),0.7,6.8,·,-1.0,·,8.1%&-6.2%,0.768
COCCC(=O)N1CCC(Oc2ccc(C(=O)NCCC3=CCCCC3)cc2)CC1,-1.7,3.7,i,4.9,-1.3,·,0.663
O=C(CNC(=O)c1ccc([N+](=O)[O-])cc1)c1ccccc1,-1.8,4.3,i,-2.9,-5.3,1.8%,0.681
CN1CCN(c2nc3ccccc3nc2C(C#N)S(=O)(=O)c2ccccc2)CC1 (stereo unspecified),·,64.3*,·,0.9,2.4,·,0.62
Cc1ccc(CNC(=O)c2ccc(CNc3c(N4CCCC4)c(=O)c3=O)cc2)cc1,-2.7,-0.5,i,4.9,4.6,1.2%,0.728
COc1cc(C(=O)COC(=O)Cc2cnc3sccn23)cc(OC)c1OC,-0.7,-2.9,·,2.8,·,3.2%,0.685
CCC(C)NC(=O)C1CCC(CNS(=O)(=O)c2ccccc2)CC1 (stereo unspecified),1.9,3.9,i,0.2,-2.8,-4.4%,0.605
CCN(C(=O)COc1cc(=O)n(CC)c2ccccc12)c1cccc(Cl)c1,-4.1,?,·,3.4,·,0.6%,0.735
Cc1nn(-c2nc(-c3ccco3)cc(C(F)(F)F)n2)c(C)c1Br,5.2,6.6,·,1.1,·,-1.9%,0.671
C=CCC1NCCc2c(Br)cccc21 (stereo unspecified),-0.5,3.9,i,0.6,-0.3,-4.6%,0.669
COc1ccc2[nH]c3c(c2c1)CCN1C(=O)C(CC(=O)NCC24CC5CC(CC(C5)C2)C4)C[C@H](C(=O)N(C(C)C)C(C)C)[C@@]31C (stereo partly specified),1.0,·,i,2.2,9.6,·,0.68
CCCCNC(=O)c1sc(=S)n2c1[nH]c(=O)c1ccccc12,-1.7,-0.8,·,6.3,·,7.8%,0.663
COc1cccc(-c2nc(CS(=O)(=O)CC(=O)NCCCN3CC(C)CC(C)C3)c(C)o2)c1 (stereo unspecified),0.3,2.5,i,2.8,2.4,·,0.668
CCOc1ccc(N(CC)S(=O)(=O)c2ccc3c(c2)oc(=O)n3C)cc1,-2.2,?,·,0.2,·,15.2%,0.68
COCC(C)n1c(SCC(=O)N2CCc3ccccc3C2)nc2ccccc2c1=O (stereo unspecified),0.6,-3.4,i,2.7,2.8,-4.0%,0.667
O=C(Cn1cnc2ccccc2c1=O)NNC(=O)c1ccccc1,3.0,-1.5,i,2.3,-2.4,3.9%,0.681
CC(C)[C@H](NS(=O)(=O)c1ccccc1)C(=O)OCC(=O)N1N=C(c2ccc(Cl)cc2)CC1c1ccco1 (stereo partly specified),7.9,-2.1,i,2.1,0.0,-4.2%,0.659
Cc1ccc(S(=O)(=O)N(C)CC(=O)NCC(c2ccc(F)cc2)N2CCOCC2)cc1 (stereo unspecified),-0.7,·,i,3.8,-0.2,2.3%,0.71
C=CCN1C(=O)C(Cc2ccc(F)cc2)S/C1=N/N=C/c1cccs1 (stereo unspecified),0.5,3.4,·,·,·,-2.2%,·
CCN(CCN(C)C)C(=O)c1ccc2nc(C)c(N(C)C(=O)CCc3ccccc3)n2c1,-1.3,·,i,·,-1.7,·,·
COc1ccc(NC(=O)COC(=O)Cc2c(F)cccc2Cl)cc1,3.6,-0.6,i,1.9,2.0,3.6%,0.642
CCCCn1c(N)c(N(CC)C(=O)c2cc(OC)cc(OC)c2)c(=O)[nH]c1=O,1.5,0.3,i,-2.6,-28.8,-3.4%,0.751
c1csc(-c2nnc(Cc3cccc4ccccc34)o2)c1,2.0,1.1,·,0.8,·,-1.2%,0.702
COc1ccc(OC)c(S(=O)(=O)Nc2ccccc2F)c1,-3.2,-2.2,i,2.1,-10.8,14.3%,0.708
Cc1cc(C)n(-c2ccc(Oc3ccccc3)c(S(=O)(=O)O)c2)n1,0.0,?,i,2.6,0.3,-9.8%,0.733
CC(=O)NCCC(=O)Nc1nc2ccc(Oc3ccccc3)cc2s1,0.4,0.4,i,-4.5,-12.6,·,0.64
O=C(NC1CCCCC1)C(CCc1ccccc1)N1CCOCC1 (stereo unspecified),2.1,·,i,·,-2.5,·,·
Cc1c(Cl)cccc1NC(=O)Nc1c(C)n(C)n(-c2ccccc2)c1=O,-0.8,-1.6,i,-1.3,0.6,-2.5%,0.674
CCCCNC(=O)c1ccc2c(c1)C(=O)N(Cc1ccncc1)C2=O,2.4,2.3,i,4.1,-0.5,-1.0%,0.686
Cc1cccc(Cn2nc(C)cc2NC(=O)CCCn2ccc([N+](=O)[O-])n2)c1,2.2,3.4,·,2.5,2.5,?,0.716
CN(C)S(=O)(=O)c1ccc(Cl)c(NC(=O)COC(=O)/C=C/c2ccc(S(=O)(=O)N3CCOCC3)cc2)c1,-1.3,-1.3,i,2.0,3.8,?,0.683
Cc1ccc2cc(C#N)c(SCC(=O)NCc3ccco3)nc2c1,-3.9,0.5,·,-10.6,·,0.2%,0.794
O=C1Nc2ccccc2SC1=Cc1ccccc1,1.1,·,i,·,0.8,2.5%,·
Cc1ccc(-n2ncc3c(=O)n(CC(N)=O)cnc32)cc1,0.5,4.3,i,-0.4,-1.9,·,0.719
Fc1ccc(-[n+]2nc(Nc3ccccc3)sc2-c2c(Cl)cccc2Cl)cc1,3.5,-3.2,i,4.1,33.8*,·,·
C[C@@H]1CCCCO[C@@H](CN(C)C(=O)CCCN(C)C)[C@@H](C)CN([C@H](C)CO)C(=O)c2cc(NC(=O)CCC(F)(F)F)ccc2O1,-1.3,·,i,·,0.0&-1.7,15.1%,·
Cc1c(C(=O)NCC2COc3ccccc3O2)oc2ccc(S(=O)(=O)N3CCOCC3)cc12 (stereo unspecified),2.7,0.0,·,2.4,·,0.4%,0.72
O=C(CN1CCN(Cc2ccccc2Cl)CC1)N/N=C/c1cccs1,1.9,-3.6,i,·,0.0,9.0%,·
COC(=O)C1CCN(C(=O)CSc2nnc(-c3ccccc3)o2)CC1,-2.9,?,i,5.2,-2.5,-5.0%,0.664
COc1cccc(/C=N/Nc2nc(Nc3ccccc3)nc(-n3nc(C)cc3C)n2)c1O,-4.3,6.2,·,·,·,13.8%,·
O=C(CNC(=O)c1ccc2c(c1)OCO2)NCCOc1ccc(Cl)cc1,-2.2,·,i,2.0,4.7,·,0.676
COC(=O)c1cc(-c2ccc(OC)cc2)n[nH]1,-1.5,1.7,i,0.7,0.3,-8.1%,0.683
COc1cc(OC)cc(-c2noc([C@@H]3O[C@H](CO)[C@@H](O)[C@H]3O)n2)c1,1.6,·,i,·,1.3,·,·
NS(=O)(=O)c1ccc(NC(=O)c2ccc(S(=O)(=O)N3CCCCCC3)cc2)cc1,0.5,·,i,0.6,-6.2,-8.6%,0.724
COC(=O)N/N=C1\CCCc2c(C)cc(C)cc21,0.0,-2.7,i,·,1.3,-2.7%,·
COC(=O)c1cc(S(=O)(=O)Nc2cc(OC)cc(OC)c2)cn1C,2.8,-3.7,i,3.4,3.9,·,0.772
CNC(=O)OC1CC2CC1[C@H]1CCCCN1C2=O (stereo partly specified),3.9,·,i,·,-2.6,·,·
COc1cccc(N=Nc2c(=O)[nH]n3c(=O)c4c([nH]c23)CCC4)c1,-7.4,5.8,·,20.2*,·,?,0.683
CCCCN(C(C)=O)c1ccc2c(c1)C1CC2CCN1C(=O)OCc1ccccc1 (stereo unspecified),1.0,·,i,·,0.2,·,·
CSc1ncccc1C(=O)OCC(=O)NCCCc1ccccc1,-1.2,·,i,4.1,-4.7,·,0.669
Cc1csc(NC(=O)C2CCCN(S(=O)(=O)c3ccc4c(c3)oc(=O)n4C)C2)n1 (stereo unspecified),-6.0,-1.7,i,1.7,5.9,3.8%,0.732
CN(C)C(CNC(=O)c1ccc2ccccc2c1)c1ccco1 (stereo unspecified),6.9,?,i,0.5,0.4,?,0.708
COc1ccc(CCNC(=O)C2CC(=O)N(C3CCCC3)C2)cc1OC (stereo unspecified),-0.6,-0.4,·,5.6,·,-1.6%,0.706
Cc1ccc2nc(N3CCN(c4ccccc4)CC3)c(C=O)c(=O)n2c1,2.7,-3.1,i,5.2,1.1,3.4%,0.677
# Later entries:
SMILES,HNF4A DNA FP,RanGTP-Imp inh,FGF22 binding,UCH37 inh,AF4-AF9 inh,Vif TR-FRET,Ecoli growth
C=CCn1c(C)cc(C(=O)CSc2nc3ccccc3c(=O)[nH]2)c1C,-1.8,·,·,4.1,·,11.7%,0.701
CC(C)(C)c1ccc(OCC(=O)O)cc1,0.9,-0.1,·,3.5,·,-7.7%,0.696
Cc1[nH]c2ccccc2c(=O)c1C(=O)/C=C/c1ccccc1,-0.3,-2.0,i,5.0,-1.7,·,0.651
CC(=O)N1CCOc2ccc(S(=O)(=O)NCCc3ccccc3)cc21,4.5,-5.3,i,2.7,2.6,5.3%,0.613
CC1C(=O)N(Cc2cn(CCC3OCCCO3)nn2)CCS(=O)(=O)N1Cc1ccc(-c2ccncc2)cc1 (stereo unspecified),-0.5,·,i,·,-0.1,·,·
O=c1oc2ccccc2c(N2CCCC2)c1CN1CCCC1,-1.3,7.5,i,-1.4,5.6,7.7%,0.691
O=C(c1cccs1)N1C[C@H](n2cc(C3CC3)nn2)[C@@H](O)C[C@@H]1c1ccc(Cl)cc1,0.6,·,i,·,-5.1,-10.6%,·
Cc1cc(F)c(F)c(C(=O)N2CCOCC2)c1,-0.4,1.4,·,-0.4,·,-1.1%,0.733

# Some of the entries so far, as labelled records:
c1csc(-c2nnc(Cc3cccc4ccccc34)o2)c1
  HNF4A DNA FP: 2.0
  RanGTP-Imp inh: 1.1
  FGF22 binding: ·
  UCH37 inh: 0.8
  AF4-AF9 inh: ·
  Vif TR-FRET: -1.2%
  Ecoli growth: 0.702

CCN(C(=O)COc1cc(=O)n(CC)c2ccccc12)c1cccc(Cl)c1
  HNF4A DNA FP: -4.1
  RanGTP-Imp inh: ?
  FGF22 binding: ·
  UCH37 inh: 3.4
  AF4-AF9 inh: ·
  Vif TR-FRET: 0.6%
  Ecoli growth: 0.735
